Screening results deposited in PubChem by Southern Research Institute.
Mtb H37Rv = Confirmatory growth inhibition assay against Mycobacterium tuberculosis H37Rv, potency (AID 1949) | most inactive calls were filed without a number and no value below 0 was filed | inhibition, % at 10 µg/mL; hits with a dose series show IC50 in µg/mL | 1.6% of 100,000 active;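 active means confirmed in a dose series; inconclusive means about 50% or more but not retested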;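 further: bacteria grown 7 days with compound before Alamar blue readout; 0% = untreated bacteria and 100% = reference antibiotic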
* = called active by the depositor; i = inactive; ? = inconclusive.

The first 10 records (preview)
SMILES	Mtb H37Rv
O=C(CSc1ncn(-c2ccccc2)n1)Nc1ccccc1Br	i
Cc1c(CC(=O)O)c(=O)oc2c(C)c(OCc3c(F)cccc3Cl)ccc12	i
Cc1cc(=O)[nH]c(SCCCOc2ccc([N+](=O)[O-])cc2)n1	6%
COc1ccc(Cc2nnc(NC(=O)c3ccc(SC)cc3OC)s2)cc1	i
COC(=O)c1ccccc1NC(=O)c1ccc2c(c1)CC(C)O2 (centres undefined)	24%
CN(C)c1nc(Oc2ccc(=O)[nH]n2)nc(N2CCCCC2)n1	i
CC(=O)Nc1ccccc1SCC(=O)Nc1ccc(I)cc1C(C)C	i
COc1ccc(CCNC(=O)C2CC(c3ccccc3Cl)=NO2)cc1OC (centres undefined)	i
CCOC(=O)c1c(NC(=O)c2ccc(C(=O)O)cc2)sc(-c2ccccc2)c1C	i
N#C/C(=C\C=C\c1ccco1)c1nc(-c2cc3ccccc3oc2=O)cs1	i

The listing (from the top)
SMILES	Mtb H37Rv
O=C(CSc1ncn(-c2ccccc2)n1)Nc1ccccc1Br	i
Cc1c(CC(=O)O)c(=O)oc2c(C)c(OCc3c(F)cccc3Cl)ccc12	i
Cc1cc(=O)[nH]c(SCCCOc2ccc([N+](=O)[O-])cc2)n1	6%
COc1ccc(Cc2nnc(NC(=O)c3ccc(SC)cc3OC)s2)cc1	i
COC(=O)c1ccccc1NC(=O)c1ccc2c(c1)CC(C)O2 (centres undefined)	24%
CN(C)c1nc(Oc2ccc(=O)[nH]n2)nc(N2CCCCC2)n1	i
CC(=O)Nc1ccccc1SCC(=O)Nc1ccc(I)cc1C(C)C	i
COc1ccc(CCNC(=O)C2CC(c3ccccc3Cl)=NO2)cc1OC (centres undefined)	i
CCOC(=O)c1c(NC(=O)c2ccc(C(=O)O)cc2)sc(-c2ccccc2)c1C	i
N#C/C(=C\C=C\c1ccco1)c1nc(-c2cc3ccccc3oc2=O)cs1	i
CC1CCCCC1NC(=O)C(=O)Nc1ccccc1Cl (centres undefined)	i
Cc1c(N2C(=O)c3ccc(Br)cc3C2=O)c(=O)n(-c2ccccc2)n1C	i
COCCCNC(=O)c1ccc(NS(C)(=O)=O)cc1	i
N#Cc1c(NC(=O)CCn2cnc3ccccc3c2=O)sc2c1CCC2	i
O=C(NCc1ccccc1)c1ccc2c(c1)OCCO2	i
O=C1CC(SCc2ccccc2)C(=O)N1c1ccc(-c2nc3ccccc3o2)cc1 (centres undefined)	i
COc1cccc(OC)c1C(=O)N1CCN(C(=O)c2c(OC)cccc2OC)CC1	i
COc1cc(NC(=O)CCC2CCCC2)c(OC)cc1Cl	i
COc1cccc(NC(=O)Cc2nnc(SCC(=O)Nc3c(Cl)cc(Cl)cc3Cl)n2C)c1	i
COc1ccc(OC)c(N2Cc3cc(C)c(C)cc3C2)c1	12%
COc1cc(CO)c(Br)cc1OCc1cccc(F)c1	5%
CCN(CC)C(=O)C(=O)Nc1ccc(F)c(Cl)c1	i
Cc1ccccc1C(=O)NCc1nnc(SCC(=O)Nc2cc(Cl)cc(Cl)c2)n1C	i
Cc1cccc(C(C)C)c1NC(=O)CN(c1ccc(Oc2ccccc2)cc1)S(C)(=O)=O	1%
COc1ccc(/C(N)=N/OC(=O)c2ccccc2-c2ccccc2)cc1OC	4%
CSc1ccc(C(CC(=O)c2ccccc2)Nc2ccc(F)cc2)cc1 (centres undefined)	1.5µg/mL*
CCc1cccc(OCC(=O)Nc2ccccc2C(=O)O)c1	6%
COc1ccc(C(=O)NCCSc2ccccc2C)cc1	1%
S=C(Nc1cccc(Cl)c1)Nc1ccccc1Oc1ccccc1	48%
CCOC(=O)c1c(NC(=O)C(C)Oc2ccc(Cl)cc2C)sc(C(N)=O)c1C (centres undefined)	4%
CCn1c(SCC(=O)Nc2ccc(Br)cc2F)nnc1C(C)NC(=O)c1ccc(Cl)cc1Cl (centres undefined)	3%
CCOC(=O)C1=CN(C(C)C)C=C(C(=O)OCC)C1c1ccc(F)cc1	i
CC(NC(=O)c1ccc(Br)cc1)c1ccc2c(c1)CCCC2 (centres undefined)	?
COc1ccc(-c2cc(C(F)(F)F)c(C#N)c(SCC(=O)NC(C)C)n2)cc1OC	i
COc1ccc(N2CCN(C(=S)Nc3cccc([N+](=O)[O-])c3)CC2)cc1	5%
Cc1cc(OCC(=O)Nc2ccc(N3CCN(Cc4ccccc4)CC3)cc2)ccc1Cl	4%
Cc1ccc2c(C)c(C(=O)Nc3ccc(S(=O)(=O)N4CCOCC4)cc3)oc2c1	i
CCc1cccc(CC)c1NC(=O)COc1ccc(Br)cc1C(C)(C)C	i
Cc1ccc(Oc2ccc([N+](=O)[O-])cn2)cc1	i
COC(=O)c1c(NC(=S)Nc2ccc3c(c2)CCC3)sc2c1CCC(C)C2 (centres undefined)	0%
Brc1cccc(OCCCCSc2ncccn2)c1	i
CCOC(=O)C(=O)Nc1sc(C(=O)NC2CCCC2)c(C)c1C(=O)OCC	i
CCOC(=O)c1sc(NC(=O)CCCOc2ccccc2OC)c(C#N)c1C	i
O=C(Nc1nc2ccc(Br)cc2s1)c1ccc(S(=O)(=O)N2CCOCC2)cc1	i
Cc1[nH]c2ccccc2c1C(=O)CN1CCN(C)CC1	i
Cc1nn(-c2ccc(N3CCOCC3)nn2)c(=O)c2ccccc12	i
CN(C)c1ccc(C(=S)N2CCN(c3ccccc3[N+](=O)[O-])CC2)cc1	i
COc1cc(S(=O)(=O)N2CCN(c3ccccc3F)CC2)c(OC)cc1Cl	i
Cc1ccc(C(C)C)c(OCCn2c(=O)oc3ccc(C)cc32)c1	i
CC(C)c1ccc(OCc2n[nH]c(=S)o2)cc1	i
O=C(N/N=C/c1c(Br)cc(Br)c(O)c1Br)C1COc2ccccc2O1 (centres undefined)	2%
CC(C)=C1C2CCC1C(C(=O)NCc1ccccc1)C2C(=O)O (centres undefined)	i
Cc1cc(C)cc(NC(=O)COc2ccc(Br)cc2C)c1	i
COc1ccc(-c2nc(C#N)c(NCCCN3CCOCC3)o2)cc1	i
Cc1cc(NC(=O)C(=O)NCCN2CCN(S(C)(=O)=O)CC2)ccc1Br	i
Cc1ccc(C(C)C)c(OCC(=O)Nc2ccc(N3CCN(Cc4ccccc4)CC3)cc2)c1	i
O=C(Nc1ccc(I)cc1)c1cn(-c2ccccc2)nc1-c1ccncc1	i
CC1(C)Cc2c(ccc3ccccc23)/C(=C/C#N)N1	3%
CC(=O)c1cccc(NC(=O)C2CCN(S(=O)(=O)c3ccc4ccccc4c3)CC2)c1	i
CCC(=O)NC(c1ccc(C)cc1)c1cc([N+](=O)[O-])c2cccnc2c1O (centres undefined)	i

Next records
SMILES	Mtb H37Rv
Nc1cc(=O)[nH]c(SCC(=O)NCc2ccccc2)n1	2%
COc1cc(NC(=S)N2CCN(c3ccc(C)cc3)C(C)C2)cc(OC)c1 (centres undefined)	i
Nc1nnc(SCC(=O)Nc2ccc3ccccc3c2)s1	19%
CCOc1ccc(S(=O)(=O)Oc2cccc3ccc(C)nc23)cc1	3%
NC(N)=Nc1nc2cc(Cl)ccc2o1	2%
CCOC(=O)c1c(NC(=O)CSc2nc3sc4c(c3c(=O)[nH]2)CCC4)sc2c1CCCC2	i
CS(=O)(=O)N1CCN(CCN2C(=O)c3cccc4cccc(c34)C2=O)CC1	i
Cc1c(NC(=O)CSc2nnnn2-c2ccc(O)cc2)c(=O)n(-c2ccccc2)n1C	i
S=C(NCCN1CCOCC1)Nc1ccccc1	i
CC(=O)Nc1ccc(NC(=O)C2CCN(S(=O)(=O)c3ccc(C)cc3)CC2)cc1	i
COc1ccccc1C(=O)NC(=S)Nc1ccc2oc(-c3cc(F)c(F)cc3Cl)nc2c1	i
COc1cccc(OC)c1C(=O)Nc1ccc2c(c1)C(=O)N(C)C2=O	i
c1ccc2c(OCCN3CCOCC3)cccc2c1	6%
COc1ccc(NC(=O)CSc2nnc(-c3ccncc3)o2)cc1	i
COC(=O)c1ccccc1NC(=O)C(=O)N1CCCC1	2%
CCN(CC)S(=O)(=O)c1ccc(NC(=O)Cc2ccc(F)cc2)cc1	i
CCOC(=O)c1c(NC(=O)Cc2ccccc2)sc(C(=O)OC)c1C	i
CCSc1nc2sc3c(c2c(=O)n1CC)CCC(C(C)(C)C)C3 (centres undefined)	1%
O=C(Nc1ccncc1)Nc1ccc(F)c(Cl)c1	i
O=C(Cn1cnc2ccccc2c1=O)NCc1ccc(Cl)cc1	i
Cc1ccc(NC(=O)c2oc3cc(C)c(C)cc3c2C)c(C)c1	i
O=C(Nc1ccccc1Cl)c1cc2cc(Cl)cc(Cl)c2oc1=O	i
CCOC(=O)c1nc(N)nc(Nc2ccccc2)n1	i
CC(C)c1ccc(C(=O)Nc2nc(-c3ccc([N+](=O)[O-])cc3)cs2)cc1	i
CN(C)c1ccc(C2CC=NN2c2ccccc2)cc1 (centres undefined)	6%
O=C(Nc1ccccc1C(F)(F)F)Nc1nn(Cc2c(F)cccc2Cl)cc1Br	i
COC(=O)c1ccc(COc2cccc(C)c2C)cc1	6%
COC(=O)c1ccc(C(=O)OC)c(NC(=O)Cc2c(F)cccc2Cl)c1	i
CSc1ccc(S(=O)(=O)NCCCOC(C)C)cc1	5%
COC(=O)Nc1cc(C)c(OC)c(C)c1	i
CCOCCCNC(=O)c1ccc([N+](=O)[O-])cc1	i
CCCCC(=O)Nc1ccc(-c2nc3cc(C(C)C)ccc3o2)cc1	3%
O=C(Nc1ccc(Nc2ccccc2)cc1)C1CCCC1	i
COc1cc(/C=C2\C(=O)N(c3cc(Cl)cc(Cl)c3)N=C2C)ccc1OC(=O)c1ccco1	i
Cc1ccc(OCCNC(=O)C(=O)Nc2ccc(C)c(C)c2)cc1	0%
COc1ccc(C(=O)Nc2ccc3oc(-c4cccc(I)c4)nc3c2)cc1	i
CC(C)C(=O)N1CCN(C2=NS(=O)(=O)c3ccccc32)CC1	i
Cc1cc(C)n(S(=O)(=O)c2ccc(C)c(C)c2C)n1	i
O=C(Nc1ccc(F)cc1)NC1CCCCCCC1	2.5µg/mL*
O=C(Cn1nnc(-c2ccccc2)n1)Nc1ccccc1	i
O=C(CN(c1ccccc1)S(=O)(=O)c1ccc(Cl)cc1)Nc1cccc(Br)c1	i
CN(C)S(=O)(=O)c1ccc(NC(=O)CCCOc2ccc(Cl)cc2Cl)cc1	2%
CCN(CC)S(=O)(=O)c1ccc(NC(=O)c2cc(Cl)ccc2OC)cc1	i
CC(=O)NCc1ccc(CNC(C)=O)cc1	0%
O=C(CC12CC3CC(CC(C3)C1)C2)Nc1ccccc1I	1%
O=c1oc(-c2ccccc2)cc(Cl)c1Cl	2µg/mL*
CC1=C(C(=O)OCC(C)C)C(c2ccsc2)C2=C(CC(c3cccs3)CC2=O)N1 (centres undefined)	2%
CCOc1ccccc1C(=O)NCc1ccc(C)cc1	i
CCn1c(CC(=O)Nc2ccc(C)c(Cl)c2)nnc1SCC(=O)Nc1ccccc1F	i
OC(COc1ccc(Br)cc1)Cn1ccnc1 (centres undefined)	i
CCOc1ccc(C)cc1S(=O)(=O)Nc1ccc(Cl)cn1	i
Cc1ccc(S(=O)(=O)C(F)(F)F)cc1	i
CCC(=O)N(CCc1ccccc1)C1CC(=O)N(c2ccc(F)cc2)C1=O (centres undefined)	1%
CCCC(=O)Nc1ccc(C(=O)Nc2nc(CC(=O)OCC)cs2)cc1	8%
CCC(=O)Nc1ccc2nc(NC(=O)CC)sc2c1	12%
COc1ccc(-c2nnc3n2C2(CCCC2)Cc2cc(OC)c(OC)cc2-3)cc1	i
CCc1c(C)sc(NC(=O)COc2ccc(Cl)cc2Cl)c1C(N)=O	i
CC(=O)Oc1ccc(NC(=O)Cc2ccccc2)c(C(=O)O)c1	12%
COc1cc(NC(=S)N2CCCC(CO)C2)cc(OC)c1 (centres undefined)	i
CCOCC(=O)Nc1ccc(-c2nc3ccc(C)cc3s2)cc1	32%

Continued:
SMILES	Mtb H37Rv
Cc1cc(NC(=S)NC(=O)c2ccco2)ccc1-c1cc2ccccc2oc1=O	i
COc1ccc(OC)c(N(CC(=O)Nc2ccccc2Cl)S(C)(=O)=O)c1	i
COc1ccc(C2CC(c3ccc(F)cc3)=NN2c2cccc(Cl)c2)cc1 (centres undefined)	44%
CCOC(=O)CNC(=O)c1cc(-c2ccccc2Cl)nc2ccccc12	i
CN(C)Cc1c(O)ccc2occ(C(=O)c3ccccc3)c12	i
CSc1nc2n(n1)C(c1sccc1C)C1=C(CCCC1=O)N2 (centres undefined)	0%
O=C(Nc1ccc(I)cc1C(=O)NCc1ccco1)c1ccco1	0%
O=C(NC1CCCCC1)c1cccc(COc2cc(Cl)ccc2Cl)c1	i
CCc1ccc(NC(=O)CN(c2cccc(Cl)c2)S(C)(=O)=O)cc1	6%
C=CCn1c(NC(=O)CC)c(C(=O)OCC)sc1=S	i
COc1ccc(CNC(=O)CCSc2ccc(C)cc2)cc1	5%
O=C(CCc1ccccc1)Nc1ccc(S(=O)(=O)Nc2ccccn2)cc1	i
CC(=O)Nc1ccc(NC(=O)CN(C)S(=O)(=O)c2ccc(Cl)cc2)cc1	i
C/C(CC(=O)NC(C)(C)C)=N\NC(=O)c1cccnc1	i
COC(=O)C(C)n1cnc2sc(-c3ccccc3)cc2c1=O (centres undefined)	5%
O=C(Nc1cccc(-c2nc3ncccc3o2)c1)c1cc(I)ccc1Cl	i
COc1ccc(C(=O)NC2=C(C#N)CCC2)cc1OC	i
Cc1ccc(SCCNS(C)(=O)=O)cc1	i
O=C(Nc1cccc([N+](=O)[O-])c1)c1ccco1	i

An excerpt of these results, in markdown.
| molecule | Mtb H37Rv |
| --- | --- |
| O=C(NC1CCCCC1)c1cccc(COc2cc(Cl)ccc2Cl)c1 | i |
| CCc1ccc(NC(=O)CN(c2cccc(Cl)c2)S(C)(=O)=O)cc1 | 6% |
| C=CCn1c(NC(=O)CC)c(C(=O)OCC)sc1=S | i |
| COc1ccc(CNC(=O)CCSc2ccc(C)cc2)cc1 | 5% |
| O=C(CCc1ccccc1)Nc1ccc(S(=O)(=O)Nc2ccccn2)cc1 | i |
| CC(=O)Nc1ccc(NC(=O)CN(C)S(=O)(=O)c2ccc(Cl)cc2)cc1 | i |
| C/C(CC(=O)NC(C)(C)C)=N\NC(=O)c1cccnc1 | i |
| COC(=O)C(C)n1cnc2sc(-c3ccccc3)cc2c1=O (centres undefined) | 5% |
| O=C(Nc1cccc(-c2nc3ncccc3o2)c1)c1cc(I)ccc1Cl | i |
| COc1ccc(C(=O)NC2=C(C#N)CCC2)cc1OC | i |

This is a subset; rates above refer to the full screens.
